Calb biofilm kill: mixtures killing C. albicans biofilm | C. albicans biofilm persisters + clotrimazole, fluorescence viability; primary screen in compound mixtures of four per well | AID 1242 | 120,000 compounds, 0.02% hits | inhibition, % at 7.6 µM;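 active = inhibition above 30.3% in the primary screen of four-compound pools, then above 30% when the compound was retested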;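 also: compounds exposed to preformed 24 h biofilms for 48 h; the number belongs to the whole pool; some results filed as inactive read as strong as hits; inactives centre near 12; 0% = biofilm with clotrimazole alone and 100% = kill control; retested singly at about 60 µM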
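Test system: C. albicans biofilms. Buffer or medium: RPMI/MOPS medium, pH 7.0. Timing: 48 h compound exposure at 37 °C. Technique: Alamar Blue fluorescence. Evaluation: percent inhibition of biofilm viability.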
The depositor's hits bear a star. An excerpt, so the mix of outcomes need not match the whole.

A first look:
SMILES | Calb biofilm kill
CCOc1cccc(NC(=O)c2cccc(F)c2)c1 | -0.1
OCCN1CCN(C2Cc3cc(Cl)ccc3Sc3ccc(Cl)cc32)CC1 (stereo not given) (tested in a mixture with another compound) | 9.3
CCCN1CNC(=S)N(c2cc(C)ccc2C)C1 | 11.1
COc1cccc(Oc2coc3cc(OC(=O)N4CCOCC4)ccc3c2=O)c1 | 21.3
CC(C)OP(=O)(c1ccccc1)c1ccccc1 | -5.0

Results, from the first entry:
SMILES | Calb biofilm kill
CCOc1cccc(NC(=O)c2cccc(F)c2)c1 | -0.1
OCCN1CCN(C2Cc3cc(Cl)ccc3Sc3ccc(Cl)cc32)CC1 (stereo not given) (tested in a mixture with another compound) | 9.3
CCCN1CNC(=S)N(c2cc(C)ccc2C)C1 | 11.1
COc1cccc(Oc2coc3cc(OC(=O)N4CCOCC4)ccc3c2=O)c1 | 21.3
CC(C)OP(=O)(c1ccccc1)c1ccccc1 | -5.0
CC1CCCCC1NC(=S)NC(=O)c1ccccc1Br (stereo not given) | 6.3
C/C(=N\N1CCN(C2c3ccccc3-c3ccccc32)CC1)c1ccco1 | 14.6
CCOc1ccc2nc(N/C(N)=N/C(=S)Nc3ccc(C)c(C)c3)nc(C)c2c1 | 8.7
CCOC(=O)c1sc(N(Cc2ccccc2)C(=O)COC(=O)c2ccccc2O)nc1C | 2.1
Cc1ccsc1/C=N/NC(=O)Cn1nc(C)c([N+](=O)[O-])c1C | 23.8
Cc1sc2nc(CN3CCCC3)nc(Cl)c2c1C | 16.1
COc1cc(/C=C2\SC(=O)NC2=O)ccc1Oc1ccc([N+](=O)[O-])cn1 | 6.5
O=C(Oc1cccnc1)c1ccc([N+](=O)[O-])cc1Cl | 3.5
CCOC(=O)C(Cc1ccc(O)cc1)NC(=O)CNC(=O)C1CCCN1C(=O)OC(C)(C)C (stereo not given) | 4.6
C=CCn1c(=O)/c(=C2/Sc3ccccc3N2CC)s/c1=C1/C(=O)NN=C1C | 8.6
CC(Sc1nnnn1C)C(=O)Nc1ccccc1 (stereo not given) | 6.5
CC(C)NC(=O)COC(=O)CNC(=O)c1cc(Cl)cc([N+](=O)[O-])c1 | 18.1
O=C(O)c1ccc(Br)cn1 | 27.8
Cc1cccc(C2c3[nH]c4ccccc4c3CCN2C(=O)c2cc3c([nH]c2=O)CCCC3)n1 (stereo not given) | 11.4
COc1ccc(Cc2nnc(NC(=O)c3cccc(C)c3)s2)cc1 | 1.3

Exported as comma-separated lines: part of the list above
Structure,Calb biofilm kill
C=CCn1c(=O)/c(=C2/Sc3ccccc3N2CC)s/c1=C1/C(=O)NN=C1C,8.6
CC(Sc1nnnn1C)C(=O)Nc1ccccc1 (stereo not given),6.5
CC(C)NC(=O)COC(=O)CNC(=O)c1cc(Cl)cc([N+](=O)[O-])c1,18.1

Further structures follow:
SMILES | Calb biofilm kill
CC(=O)Nc1ccc(S(=O)(=O)N2CCN(c3ccc([N+](=O)[O-])c(NCCN4CCOCC4)c3)CC2)cc1 | 5.5
Cc1[nH]c2ccccc2c1C(=O)CSC(=S)N(C)C1CCCCC1 | 11.2
C/C(=N\NC(=O)COc1ccc(C)cc1C(C)C)c1cc2ccccc2o1 | 11.1
O=S(=O)(Nc1cc(Sc2ncn[nH]2)c(O)c2ccccc12)c1ccccc1 | 2.8
O=C(NC(=S)Nc1ccc(-c2ccc(CO)o2)cc1)c1cccs1 | 27.4
Cc1ccc(NS(=O)(=O)c2ccc(Cl)c(NC(=S)NC(=O)C3CCCCC3)c2)cc1Cl | 12.9
COc1ccccc1OCC(=O)NNC(=O)c1cccs1 | 15.9
CCc1cc(C(=O)Cc2nc3ccccc3s2)c(O)cc1OCC(=O)O | 1.0
O=C(Nc1cccnc1)/C(N=Nc1cccnc1)=C(\O)c1ccccc1 | 18.9
CCn1c(CCc2ccccc2)n[nH]c1=S | 20.8
CSC1=NSC2=NC(=O)/C(=C/c3coc4ccc(O)cc4c3=O)C(=N)N12 | 22.1
Cc1ccc(-c2nn(CC(=O)O)c(=O)c3ccccc23)cc1 | 15.4
Cc1ccc2c(c1)C1CN(C)CCC1N2C(=S)NC(=O)c1ccc(Br)cc1 (stereo not given) | 3.6
CCOC(=O)C(=O)Nc1ccccc1C#N | 19.7
COc1ccccc1NS(=O)(=O)c1cc(NC(=O)/C=C/c2cccs2)ccc1N1CCOCC1 | 9.2
O=C(c1ccc(NC(=S)NCc2ccco2)cc1)N1CCOCC1 | 14.9
CC(=O)Cc1nsc(Nc2ccc(C)cc2)n1 | 16.9
CC(C)c1ccc(NC(=O)c2snc3ccc(Cl)cc23)cc1 | 18.1
CC1CCc2c(sc(NC(=O)C3c4ccccc4Oc4ccccc43)c2C(N)=O)C1 (stereo not given) | 4.0
O=C(CC(C(=O)O)c1ccccc1)c1cccs1 (stereo not given) | 17.0
CCn1c(SCC(=O)N=Nc2c(O)[nH]c3ccccc23)nc2ccccc21 | 15.1
CC(=O)Nc1ccc(NC(=S)Nc2ccc(F)cc2)cc1 | 7.8
O=C(NCCc1ccccn1)C1CCN(S(=O)(=O)c2ccc(Cl)cc2)CC1 | 29.4
CC(SCc1ccccc1)C(=O)N/N=C/c1cccs1 (stereo not given) | 16.9
Clc1cc(Cl)cc(CN2CCSCC2)c1 | 14.6
CNC(=O)CSc1nnc(-c2ccc3c(c2)OCO3)n1C | 7.4
O=C(c1cccc(Cl)c1)N1CCn2c1nc1ccccc12 | 16.6
C=CCNC(=S)N(CC)c1cccc2ccccc12 | 17.9
Cc1ccc(O)c(C(=O)c2cnn(C(=O)COc3ccc(Cl)cc3)c2)c1 | 19.3
OCCC1CN(Cc2cccc(-c3ccco3)c2)CCN1Cc1ccsc1 (stereo not given) | 14.7
CCOc1ccccc1NC(=O)CCCN1C(=S)NC(C)(C)CC1C (stereo not given) | 14.1
C=C(C)c1cccc(C(C)(C)NC(=O)Nc2ccc(C(C)=O)cc2)c1 | 8.9
O=C1CS(=O)CN1c1ccc(Oc2ccccc2)cc1 (stereo not given) | 12.3
COc1cc2c(cc1OC)CN(CC(=O)Nc1ccc(Cl)c(S(=O)(=O)N(C)C)c1)CC2 | 6.0
C=CCNC(=O)NC(=O)c1csc([N+](=O)[O-])c1 | 12.9
Cc1ccc(-c2nnn(CC(=O)NCCC3=CCCCC3)n2)cc1 | 13.2
O=C(Nc1c2c(nc3c1CCC3)CCCC2)c1ccccn1 | 7.6
CC(CC1CC(C)(C)OC1=O)C(=O)Nc1ccc([N+](=O)[O-])cc1 (stereo not given) | 11.8
O=C(Nc1cc2c(cc1Cl)OCCO2)c1ccco1 | 12.4
O=C(COC(=O)c1ccncc1)NCCCc1ccccc1 | 10.0

2 records drawn at random from those above:
SMILES | Calb biofilm kill
CCc1cc(C(=O)Cc2nc3ccccc3s2)c(O)cc1OCC(=O)O | 1.0
OCCC1CN(Cc2cccc(-c3ccco3)c2)CCN1Cc1ccsc1 (stereo not given) | 14.7

Remaining list, next part
SMILES | Calb biofilm kill
Cc1ccc(N/C=C2\CCCCC2=O)c(C)c1 | 3.0
O=C(Nc1ncccn1)C1CCCCC1 | 15.6
CCNC(=S)NNC(=O)c1cccnc1 | 8.6
O=C(CCSc1ccc(Cl)cc1)N1CCOCC1 | 12.2
CN1CCN(c2ncccc2S(=O)(=O)N2CCCCC2)CC1 | 11.2
CC1=C(C(=O)Nc2ccccc2F)C(c2cccs2)NC(=S)N1 (stereo not given) | 9.0
COc1ccc(NC(=O)c2cc([N+](=O)[O-])ccc2N2CCN(C)CC2)cc1 | 3.9
CN1CCN(C(=S)c2cn(Cc3cccc(F)c3)c3ccccc23)CC1 | 16.0
Cc1ccccc1Nc1nc(N)nc(COc2ccc(C#N)cc2)n1 | 0.7
CCCOc1ccc(NC(=O)C2CC(=O)N/C(=N/N=C(\C)CCc3ccc4c(c3)OCO4)S2)cc1 (stereo not given) | 8.0
NS(=O)(=O)c1cc2c(cc1Cl)NCNS2(=O)=O | 5.9
CC1(C)CN(c2ccc(C(=O)c3ccccc3)cc2)C1=O | 9.1
O=C(COc1ccccc1)NCC1(N2CCCCC2)CCCCC1 | 7.0
COc1ccc(CCN2CC(C(=O)NCCc3ccc(C)cc3)CC2=O)cc1OC (stereo not given) | 20.5
Cc1cccc(CSc2nc3c(c(-c4cccs4)c2C#N)CN(C)CC3)c1 | 7.5
CN(C)C(CNC(=O)c1ccc2nc[nH]c2c1)c1ccccc1 (stereo not given) | 0.6
CCc1ccc(N2CC(C(=O)Nc3cc(C)on3)CC2=O)cc1 (stereo not given) | -10.3
O=C(NN1C(=O)C2C3C=CC([C@@H]2C1=O)C31CC1)c1ccccc1 (stereo not given in full) | 17.8
CC1CCCN(C(=S)Nc2ccc(Nc3ccccc3)cc2)C1 (stereo not given) | 18.1
CNC(=S)N/N=C/c1ccc(-c2ccc(Cl)c([N+](=O)[O-])c2)o1 | 37.5
Cc1cc(C(=O)NNC(=S)Nc2ccccc2)nn1C | 2.5
S=C(NCc1ccc(Cl)cc1)Nc1ccc(Cl)cc1Cl | 11.5
Cc1ccc(CN(N=Nc2nonc2N)c2nonc2N)c(C)c1 | 11.1
Cc1ccc(C(=O)NC2CC3CCCC(C2)N3C(=O)NC2CCCCC2)cc1 (stereo not given) | 10.3
COC(=O)c1ccc(CNCC(=O)Nc2ccc(C(=O)OC)cc2)cc1 | -13.6
CCOC(=O)/C(C#N)=C/c1cccc(F)c1 | 12.2
CSc1nc2ccsc2c(=O)n1-c1cccnc1 | -4.6
CCc1ccc(S(=O)(=O)Nc2ccc(C)c(NS(C)(=O)=O)c2)cc1 | 21.2
O=C(CCN1C(=O)C2C3C=CC(C3)C2C1=O)N1CCN(c2ccc([N+](=O)[O-])cc2)CC1 (stereo not given) | 14.6
Cc1cccc(C(=O)N/N=C/c2ccc[nH]2)c1 | 18.6
c1ccc(-n2cnc3cc(NCc4ccco4)ccc32)cc1 | 24.7
FC(F)(F)c1cc(-c2ccccn2)nc2cc(-c3ccccc3)nn12 | 5.1
O=[N+]([O-])c1ccccc1/C=N/n1c(C(F)(F)F)n[nH]c1=S | 9.2
CCc1ccc2nc(SCC(=O)N3CCCCC3)c(C#N)cc2c1 | 7.5
COc1cc(C=O)ccc1OS(=O)(=O)c1ccc(NC(C)=O)cc1 | 18.1
Cc1ccccc1C(=O)Nc1ccc(S(=O)(=O)Nc2onc(C)c2C)cc1 | 6.5
N#CC1=C(N)SC(C(=O)c2ccccc2)C1c1cccs1 (stereo not given) | 13.0
CC(C)(C)c1ccc(C(=O)NNC(=O)c2cccc(-n3cnnn3)c2)cc1 | 21.1
CN1CCN(C(=O)c2ccccc2Nc2ccc(SC(F)F)cc2)CC1 | 24.9
CCn1c(-c2cccc(S(=O)(=O)N3CCCC3)c2)n[nH]c1=S | 16.6
CCOC(=O)C1(CCc2ccccc2)CCN(C(=O)CCn2cncn2)CC1 | 1.1
CN(C)c1nc(OCCNC(=O)Nc2ccccc2)nc(N2CCCCC2)n1 | 8.4
Cn1c(SCC(=O)Nc2ccccc2[N+](=O)[O-])nnc1C(F)(F)F | 9.2
Cc1cccc(NC(=O)c2cc3ccccc3nc2C)c1 | 12.0
Cc1c(O)c(CN(C)C)cc2c1oc(=O)c1ccccc12 | 30.5
CCN(Cc1ccccc1)S(=O)(=O)c1ccc(OC)c2ncccc12 | 3.3
O=c1[nH]c(/C=C/c2ccc3c(c2)OCO3)c([N+](=O)[O-])c(=O)[nH]1 | 25.0
O=C(CCc1nnc(COc2ccccc2)o1)NCc1ccccc1C(F)(F)F | 53.4
O=C(c1cccc(Cl)c1)N1CCN(Cc2c[nH]c3ccccc23)CC1 | 7.4
C#CCn1c(=NC(=O)c2ccco2)sc2cccc(Cl)c21 | 22.8
CCN(CC)CCN(C(=O)c1ccc([N+](=O)[O-])cc1)c1nc2ccc(OC)cc2s1 | 20.1
CC(C)C[C@H](NC(=O)[C@@H]1Cc2ccccc2CN1C(=O)OC(C)(C)C)C(=O)NCC1CCC(C(=O)O)CC1 (stereo not given in full) | 15.3
CCOc1ccccc1N(C(C)=O)S(=O)(=O)c1ccc(Cl)cc1 | -3.5
COCCn1nnnc1CN1CCSCC1 | 12.6
COc1ccc(Cl)cc1NC(=O)CN(C)CC(=O)Nc1ccccc1C(F)(F)F | 18.3
CC(=O)OCc1nc2sc(C)c(C)c2c(=O)[nH]1 | 4.8
Brc1ccc(OCCCCCN2CCOCC2)cc1 | 18.1
COC(=O)c1ccccc1NC(=O)CSc1[nH]c(=O)cc(C)c1C#N | 21.0
Cn1c(=O)c2c(nc(N3CCOCC3)n2C/C=C/c2ccccc2)n(C)c1=O | 9.4
COc1cccc2c(=O)c3cccc(N)c3[nH]c12 | 2.6
Carrying on.
SMILES | Calb biofilm kill
O=C(CN1C(=O)C2CCCCC2C1=O)OCc1nnc(-c2ccccc2)o1 (stereo not given) | 10.3
O=C(Nc1ccccc1N1CCOCC1)C1CCN(S(=O)(=O)c2ccccc2F)CC1 | 14.7
CCN(CC)S(=O)(=O)c1cc(NC(=O)CCNC(=O)c2ccccc2Cl)ccc1C | 7.9
O=C(Cn1c(C(F)(F)F)nc2ccccc21)NCCCN1CCOCC1 | 13.6
CCOC(=O)c1c(C)[nH]c(C(=O)OCC(=O)c2c(N)n(C)c(=O)n(C)c2=O)c1C | -4.6
O=C(Nc1ccc(Br)cn1)c1coc(=O)c(Br)c1 | 27.6
COCCN(C(=S)Nc1ccccc1C)C(C)c1ccco1 (stereo not given) | 16.9
CCN=c1scc(-c2ccccc2)n1/N=C/c1ccccn1 | 19.2
c1ccc(CN2CCN(CCOCCOc3ccc4c(c3)CCC4)CC2)cc1 | 13.3
CCOC(=O)C(C)Oc1cccc2c(=O)n(CC(=O)NCCc3ccc(OC)c(OC)c3)ccc12 (stereo not given) | 11.5
CCN1CCN(CC(=O)N2N=C(c3ccc(OC)cc3)CC2c2ccc(OC)cc2)C(=O)C1=O (stereo not given) | 17.2
COc1ccc(C2CC(=O)C(CS(=O)(=O)c3ccccc3)C(=O)C2)cc1 (stereo not given) | 13.1

Compound activity deposited in PubChem by PCMD.
